# Screening results: PubChem, Center for Chemical Genomics, University of Michigan
# HIV TAR-Tat – TAR RNA-Tat peptide displacers, HIV-1, primary screen, biochemical, FRET, FAM/TAMRA-labeled Tat; HIV-1 TAR RNA, Tat peptide displacement FRET; active compounds read high; z-score (concentration not given with the values); actives 0.6% (n = 100,000); AID 1259389, 2018;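 further: score is relative to mean and SD of negative controls; some compounds called inactive have numbers as strong as hits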
# CDC25B CDK2 inh – primary biochemical HTRF screen for blockers of M-phase inducer phosphatase 2 binding to CDK2/cyclin A | P30305+P24941 | HTRF CDC25B-CDK2/CyclinA binding, anti-His/anti-Flag; active compounds read high | z-score (concentration not given with the values) | actives 0.72% (n = 94,000) | AID 1259370, 2018;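 further: score is relative to mean and SD of negative controls; strong numbers were not always called active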
# Active calls of the source: *; . = no result given.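 How the source made its calls: active means z-score from 3 up in half or more of its runs; inactive means the rest.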
SMILES,HIV TAR-Tat,CDC25B CDK2 inh
CCN1C(C(=O)OC)=C(OC(=O)COc2ccccc2)c2ccccc2S1(=O)=O,-0.77,-1.1
N#C/C(=C\c1cc2ccccc2o1)S(=O)(=O)c1ccc(Cl)cc1,.,-0.68
O=C1CSc2ccc(S(=O)(=O)NCCC3=CCCCC3)cc2N1,2.5,.
O=C1CCCc2cc(S(=O)(=O)N3CCN(c4ccccc4F)CC3)ccc2N1,0.27,.
COC(=O)c1cc(-c2ccc(S(=O)(=O)Nc3ccc(F)cc3)s2)on1,0.2,.
O=C(NCCCN1CCN(c2ccccc2F)CC1)Nc1ccc(Cl)cc1,.,-0.81
Cc1noc(C)c1S(=O)(=O)Nc1ccccc1SCCS(=O)(=O)c1ccc(Cl)cc1,.,-0.37
O=C(Oc1ccc(Cl)cc1)c1cc(-c2cccs2)on1,-0.4,-1.6
Cc1ccc(-c2c(NCCN3CCCC3)c(=O)c2=O)cc1,1,.
CN(C)CCN(Cc1ccco1)S(=O)(=O)c1csc(C(N)=O)c1,-0.33,.
CCCc1nn2c(=O)cc(CSc3nc(-c4ccccc4Cl)nc4cc(=O)[nH]n34)nc2s1,0.06,.
CCCNC(=O)Cn1nc(CC)n2c(cc3sc(CC)cc32)c1=O,1.1,0.6
CCOC(=O)c1nn(-c2ccc(C(C)(C)C)cc2)c(=O)c(C#N)c1C,.,-1.6
COc1ccc(N2CCN(C(=O)NC3CCCCC3)CC2)cc1,.,-0.89
CN(C(=O)CC(=O)Nc1ccc2nc3n(c(=O)c2c1)CCCCC3)c1ccccc1Cl,.,1.1
CC(C)CNc1nc(NC(C)(C)C)nc(Oc2ccc(=O)n(C)n2)n1,-0.07,-1.1
O=C(CN1C(=O)COc2ccc(Cl)cc21)Nc1ccc(N2CCOCC2)cc1,0.6,-2.4
CCc1ccc(-n2nnc(-c3nc(-c4ccc(C)cc4)no3)c2C)cc1,1.3,.
CCc1nnc(NC(=O)COc2ccc(Br)cc2)s1,0.86,-0.08
O=[N+]([O-])c1ccc(-c2csc(-c3ccc(-c4cccs4)s3)n2)cc1,.,0.52
CCc1nn(CCCC(=O)NCCCN2CCCC2=O)c(=O)c2cc3occc3n12,2.8,0.31
O=C(c1ccc2c(=O)n3c(nc2c1)CCCC3)N1CCC(c2ccccc2)C1 (configuration not stated),1.4,.
CCNC(=O)c1cccn1-c1nnc(N2CCCC2)s1,0.63,.
CCc1nnc2c(NCc3ccncc3)nc3ccccc3n12,1.4,.
O=S(=O)(NC1CCCC1)c1cnc[nH]1,-0.17,0.02

# Other results.
SMILES,HIV TAR-Tat,CDC25B CDK2 inh
O=C(NCCOCCn1c(=O)oc2ccccc21)Nc1ccc2c(c1)OCCO2,1.8,1.5
CCC(Sc1ccc2nnc(-c3ccc(OC)cc3)n2n1)C(=O)OC (configuration not stated),.,-2.2
CCOCC(=O)Nc1c(C(=O)N2CCCC2)oc2ccccc12,0.59,.
CCOC(=O)c1c(NC(=O)CSc2nc3ccccc3o2)sc2c1CCCC2,2.6,-1.2
CCN1CCN(c2c(S(=O)(=O)c3ccccc3)cnc3cc(OC)c(OC)cc23)CC1,0.47,-0.8
Cc1nc(SCCc2ccccc2)cc(-c2ccccc2)n1,0.3,-0.19
Cc1cc2c(cc1S(=O)(=O)N1CCCC1)n(C)c(=O)n2C,1.6,-0.29
Cc1ccc(-c2nnc3sc(-c4ccncc4)nn23)cc1,1.9,-0.83
O=C(Nc1ccc(Cl)cc1)N1CCOc2ccccc21,1.1,.
O=C(CN1C(=O)CSc2ncccc21)NCc1ccc2c(c1)OCO2,-0.88,0.03
COc1cccc(C2Nc3ccccc3S2)c1OC (configuration not stated),.,-2.1
CCc1nnc2c(Nc3ccc(N4CCN(S(C)(=O)=O)CC4)cc3)nc3ccccc3n12,2.1,-3
NC(=O)C1CCN(C(=O)c2ccc(CN3C(=O)CSc4ncccc43)cc2)CC1,1.6,.
CN(CC(=O)N1CCN(c2ccccn2)CC1)c1nnc(N2CCCC2=O)s1,0.07,.
Cc1cc(-c2noc(COc3ccccc3F)n2)c2ccccc2n1,-2.2,1.7
O=C(O)c1cc2sccc2n1Cc1ccc(F)cc1,2.2,.
COc1ccc(OC)c(C2=NS(=O)(=O)N(C)C(C(=O)Nc3ccc(OC)c(OC)c3)=C2)c1,0.9,-1.9
O=C1OC2COC(=O)C2C=C1NC(=O)c1ccc(Cl)cc1 (configuration not stated),.,-0.66
Cc1ccc(N2CCN(c3nn4nnnc4c4ccccc34)CC2)c(C)c1,0.86,.
Nc1nc(Nc2ccccc2)nc(Nc2ccc(F)cc2)c1[N+](=O)[O-],0.47,.
COc1ccccc1C1C=C(c2ccc(Cl)cc2)Nc2nc(NS(C)(=O)=O)nn21 (configuration not stated),.,-1.4
CSc1nc2cc(C)nn2c(-c2ccccc2)c1C#N,.,-2.2
Cc1cc(NC(=O)CCCCCN2CCOCC2)no1,.,0.04
CCn1c(C2CC(=O)N(c3ccccc3Cl)C2)nc2ccccc21 (configuration not stated),3.9,-1.1
CN1CCN(C(=O)c2c3c(nc4ccccc24)C(=O)N(C2CCCCC2)C3)CC1,1.9,.

# Compounds shown so far that have fluorine, in the order listed:
SMILES,HIV TAR-Tat,CDC25B CDK2 inh
O=C1CCCc2cc(S(=O)(=O)N3CCN(c4ccccc4F)CC3)ccc2N1,0.27,.
COC(=O)c1cc(-c2ccc(S(=O)(=O)Nc3ccc(F)cc3)s2)on1,0.2,.
O=C(NCCCN1CCN(c2ccccc2F)CC1)Nc1ccc(Cl)cc1,.,-0.81
Cc1cc(-c2noc(COc3ccccc3F)n2)c2ccccc2n1,-2.2,1.7
O=C(O)c1cc2sccc2n1Cc1ccc(F)cc1,2.2,.
Nc1nc(Nc2ccccc2)nc(Nc2ccc(F)cc2)c1[N+](=O)[O-],0.47,.

# A different layout for some results above.
Molecule | HIV TAR-Tat | CDC25B CDK2 inh
COc1ccc(N2CCN(C(=O)NC3CCCCC3)CC2)cc1 | . | -0.89
CCN1CCN(c2c(S(=O)(=O)c3ccccc3)cnc3cc(OC)c(OC)cc23)CC1 | 0.47 | -0.8
CCOC(=O)c1c(NC(=O)CSc2nc3ccccc3o2)sc2c1CCCC2 | 2.6 | -1.2
CN(C)CCN(Cc1ccco1)S(=O)(=O)c1csc(C(N)=O)c1 | -0.33 | .
CSc1nc2cc(C)nn2c(-c2ccccc2)c1C#N | . | -2.2
O=C(NCCOCCn1c(=O)oc2ccccc21)Nc1ccc2c(c1)OCCO2 | 1.8 | 1.5

# The list continues:
SMILES,HIV TAR-Tat,CDC25B CDK2 inh
CC(C)C(=O)Nc1cccc(NC(=O)CCN2C(=O)c3ccccc3S2(=O)=O)c1,.,-0.12
CSc1ncc(C(=O)NCCC2=CCCCC2)c(C)n1,1.3,.
CS(=O)(=O)N1CCN(c2ccc(NC(=O)c3ccco3)cc2)CC1,1.2,-1.5
O=c1c(SCc2c(F)cccc2Cl)nccn1-c1ccc(F)cc1,-1.2,.
Cc1ccc(-n2c(C)cc(CN)c2C)cc1,-0.31,2.9
COC(=O)c1ccc(C(=O)OC)c(NC(=O)CSCC(=O)O)c1,.,-2.2
Cn1c(=O)c(=O)n(C)c2cc(S(=O)(=O)N3CCOc4ccc(Cl)cc43)ccc21,0.88,.
COc1ccc(CNC(=O)C2=CC(c3ccc4c(c3)OCO4)=NS(=O)(=O)N2C)cc1,3.6,-2.7
CCC(=O)N1CCc2cc(Br)cc(S(=O)(=O)CCC(=O)N3CCOCC3)c21,.,-0.41
CCN(CC)c1nnc(-n2cccc2CN2CCN(c3ccc(OC)cc3)CC2)s1,3.2,.
COC(=O)c1ccc(CSc2nc3sc4c(c3c(=O)n2C)CCC4)cc1,.,0.09
O=C1CCCC2=C1C(c1ccc3c(c1)OCO3)c1c(nc(SCc3ccccc3Cl)[nH]c1=O)N2 (configuration not stated),1.2,-0.27
CCCOc1ccc(C2C(C#N)=C(N)Oc3nc[nH]c(=O)c32)cc1OC (configuration not stated),.,-3.7
CCOc1ccc(S(=O)(=O)n2ccnc2)c2ccccc12,0.75,-0.33
CCCCc1nn2c(=O)cc(COC(=O)COc3ccc(C)cc3)nc2s1,0.83,.
Cc1ccc2c(c1)-c1onc(C(=O)N(Cc3ccco3)C3CCCCC3)c1CO2,2.4,.
O=C(c1ccc2c(=O)n3c(nc2c1)CCCC3)N1CCCc2ccccc21,1.9,.
COc1cc(NC(=O)C2=C(C)OCCS2)c(Cl)cc1C(=O)NC(C)Cc1ccco1 (configuration not stated),0.86,.
Cc1cc2c3c([nH]c2cc1S(=O)(=O)NCc1ccc(Cl)cc1)CC(C)(C)CC3=O,1.4,.
COc1ccc(Nc2nc(SC)nc(-c3ccccc3)c2C#N)cc1OC,-1.6,0.06
O=C(O)C(NS(=O)(=O)c1cccc2cccnc12)c1ccccc1 (configuration not stated),1.6,.
Cc1cc(C2c3c(n(C)c(=O)n(C)c3=O)N=C3c4ccccc4C(=O)C32)cc(C)c1O (configuration not stated),-0.84,-0.88
COc1ccc(OC)c(C2CC(c3ccc(Cl)cc3)Nc3nnnn32)c1 (configuration not stated),1.3,.
COc1ccc(NCc2cccn2-c2nnc(N3CCOCC3)s2)cc1OC,0.94,.
CSc1nc(C=Nc2ccc(Cl)cc2Cl)ccc1C#N,.,0.18

# Remaining list, next part:
SMILES,HIV TAR-Tat,CDC25B CDK2 inh
N#CC1=C(N)Oc2c(c(=O)oc3ccccc23)C12C(=O)Nc1ccc(Br)cc12 (configuration not stated),.,0.57
CC1Cc2cc(S(=O)(=O)Nc3ccc(F)cc3)ccc2N1C(=O)C1CC1 (configuration not stated),0.41,.
O=C(CCCn1ccc2cc(S(=O)(=O)N3CCCC3)ccc21)NC1CCCC1,0.4,.
COCCNc1cc(N2CCC(C)CC2)c2noc3c2c1C(=O)c1ccccc1-3,0.24,-2.6
O=C(NCCc1ccco1)C1CCn2c(nc3ccccc32)C1 (configuration not stated),1.3,.
CN1CCN(c2ccc3nnc(CCC(=O)N4CCN(c5ccccn5)CC4)n3n2)CC1,1.6,.
c1cc(C2OCC3(CO2)COC(c2ccncc2)OC3)ccn1 (configuration not stated),.,-2.1
O=C(c1cc2ccccc2oc1=O)N(c1ccccc1)C1C=CS(=O)(=O)C1 (configuration not stated),.,-0.09
COc1ccc(C2C(C(=O)OC(C)C)C(=O)CC(C)(O)C2C(=O)OC(C)C)cc1 (configuration not stated),1.1,-1
Cc1cc(C)cc(-n2nnc(-c3nc(-c4ccc(Br)cc4)no3)c2N)c1,-0.76,.
COc1ccc(C2CC(=O)c3cnc(N4CCc5ccccc5C4)nc3C2)cc1OC (configuration not stated),-0.03,-0.43
O/N=C/c1cc(Br)cs1,.,-1.8
CCOc1ccccc1N1CC(O)=C(c2nc3ccccc3[nH]2)C1=N,1.7,-1.5
O=C(c1ccco1)N1CCN(c2c3c(nc4nncn24)CCC3)CC1,0.34,-1
c1ccc(-c2nc3n(n2)C2(CCCCC2)[C@@H]2CCCC[C@@H]2N3)cc1,1.8,-0.8
Cc1cc(C)nc(Nc2nc(C)c3cccc(C)c3n2)n1,.,0.69
O=C(c1ccc2c(c1)OCCO2)N1CCC(c2nc3c(nnn3Cc3ccccc3F)c(=O)[nH]2)CC1,2.2,-2.5
COc1cccc(-c2noc(/C=C/c3ccccc3)n2)c1,1.1,-2.8
CC(=O)OCc1cc(/C=N/N(C(C)=O)c2ccccc2)nn1-c1ccccc1,.,-0.39
CCc1ccc(CN2CCN(C3CCCC(C)C3)CC2)cc1 (configuration not stated),-2.2,-1.6
Cc1cccc(-n2cc(-c3ccccc3)c3c(NCC(C)O)ncnc32)c1 (configuration not stated),0.27,.
C=CCSc1nnc(Cc2c(C)[nH]c3ccccc23)o1,2.6,-0.43
CCCc1nc(-n2cccc2)sc1C(=O)NC1CCCCC1,0.37,.
C#CCN1C(=O)C(O)(CC(=O)c2ccc(Cl)cc2)c2ccccc21 (configuration not stated),1.6,-1.5
CCOC(=O)CCCn1nc(C)c2c(C)n(-c3ccccc3)nc2c1=O,0.79,-0.7

# (more compounds)
SMILES,HIV TAR-Tat,CDC25B CDK2 inh
O=C1NNC(SCc2ccc(Br)cc2)=Nc2ccccc21,.,-2.4
CCOC(=O)c1c(S(=O)(=O)N2CCCC2)c(C)n(C)c1C,0.98,.
Clc1cccc(Cn2c(-c3ccco3)nc3ccccc32)c1,1.6,-1.6
COC(=O)c1cc2ccsc2n1Cc1ccc(F)cc1Cl,1.8,-0.59
CC(=O)N1CCCc2cc(S(=O)(=O)N3CCCC(C(=O)NC4CCCCC4)C3)ccc21 (configuration not stated),0.8,.
O=C(CSc1nnc2c(n1)[nH]c1ccccc12)c1ccc(Cl)cc1,1.7,0.06
COC(=O)c1ccccc1NC(=S)Nc1ccccc1,.,-0.81
Cc1ccc2c(c1)-c1cc(C)nn1C(c1ccc(N(C)C)cc1)N2 (configuration not stated),1.7,-0.39
C=CCN1C=C(OC(=O)COc2ccc(OC)cc2)c2ccccc2S1(=O)=O,0.41,0.75
O=C(NCc1cccnc1)c1ccc(CSc2nc3ccncc3n2Cc2ccc(F)cc2)cc1,2.3,-2.1
COc1ccc(S(=O)(=O)Nc2ccc3[nH]c(=O)oc3c2)cc1OC,-0.45,.
O=C1CC[C@@H](C(=O)N2CSC[C@H]2C(=O)O)N1,0.07,.
CCOCCCN1C(=O)CN(C2CCCCCC2)C(=O)C1c1ccc(C)cc1 (configuration not stated),.,-2
CCOC(=O)c1c(C)oc2nc(C)nc(N3CCN(c4cc(C)ccc4C)CC3)c12,0.64,.
Cc1cc(NC(=O)c2cc3n(n2)C(C(F)(F)F)CC(c2ccc(Cl)cc2)N3)no1 (configuration not stated),2.1,.
O=C(Nc1ccccc1)c1cc(=O)[nH]c2ccccc12,0.91,.
CC1=C(C(=O)NCCC(C)C)C2(CCCCC2)OC1=O,-0.04,-0.68
Cc1ccc(C(=O)CSc2nc3c(cc2C#N)CCC3)cc1,-0.97,-0.81
